# Compound activity as filed in PubChem BioAssay.
# Mtb hypoxia inh: PubChem AID 1159583; M. tuberculosis hypoxia-regulated fluorescent reporter, fluorescence; fluorescence inhibition, % (concentration not given with the values); actives 0.1% (n = 300,000);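 active means 35 to 45% if threefold the growth effect, above 45% if 1.5-fold the growth effect; inactive means the rest, general growth blockers included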;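 further: wells of about 50 µL received 100 nL stock; 0% = vehicle wells and 100% = reference inhibitor wells; whole bacteria with a GFP reporter of the hypoxia response; strong numbers were not always called active; many hits fall short of the cut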
# Bead autofluor: counter-screen for toxin protease inhibitors: compound fluorescence; compound autofluorescence counterscreen, microsphere flow cytometry; active compounds read high; fluorescence intensity (no concentration beside the values); AID 624483; actives 3.1% (n = 360,000);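 active means at least 3 SD above the mean of all compounds, about 16000 in these data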;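 further: 100 nL of 1 mM stock went into each well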
# RN4220 kill: growth inhibition of S. aureus RN4220, primary screen, OD600. 16 h. inhibition, % (test concentration not listed). actives 0.33% (n = 330,000);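 active means z-score of -3 or lower and OD600 up to 0.18 on both plates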;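 further: plate controls were untreated cells for no effect and reference antibiotic for full effect; stock transfer was 100 nL into about 80 µL; one replicate is shown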
# Sa ugtP lethal: growth inhibition of ugtP-null S. aureus, primary screen, RN4220 ugtP deletion, OD600. 16 h; some inactives read as strong as hits. growth inhibition, % (no concentration beside the values). actives 0.54% (n = 330,000);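 active means z-score under -3 and OD600 up to 0.15 on both plates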;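 further: plate controls were untreated wells for no effect and antibiotic for full effect; wells of about 80 µL received 100 nL stock; the first replicate is given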
# BJeLR lethal: MLPCN primary cell-based screen for lethality selective to Ras in HRASV12 cells; inhibition, % (concentration not given with the values); BJeLR (HRASV12) viability, CellTiter-Glo ATP luminescence, 48 h; reference of the scale not given here; actives 0.17% (n = 300,000);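 active means replicate mean above 50%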;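 further: 50 nL library stock added to about 25 µL; numbers are from one replicate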
# PrP UTR inh: inhibition of PrP 5' UTR reporter expression; inhibition, % (test concentration not listed); actives 0.35% (n = 340,000); cell-based PrP 5' UTR mRNA reporter, plate reader;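 active means every replicate at 50% or more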;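 further: 0 = median of the neutral control wells; tested in H4 reporter cells; numbers are from one replicate; inactives centre near -14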
# Mtb hypoxia inh growth: further read-out of Mtb hypoxia inh, marked with its call; growth inhibition, %; measured here: M. tuberculosis growth (absorbance);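 0% = vehicle and 100% = reference antibiotic; read after six days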
# * marks the source's active call; other numbers are inactive results; . = no result given.
canonical_smiles	Mtb hypoxia inh	Mtb hypoxia inh growth	Bead autofluor	RN4220 kill	Sa ugtP lethal	BJeLR lethal	PrP UTR inh
Cc1cnc(C(=O)OCc2ccc(C#N)cc2)cn1	-1	8	4002	-1.1	5	-11	-16
O=C(Cc1c(F)cccc1Cl)Nc1cccnc1	6	4	12911	3.8	2	1	-11
COc1cccc(OC)c1C(=O)OCC(=O)N(C)c1ccccc1	10	7	5367	5.0	5	-11	-19
CN1CCN(C(=O)C23CC4CC(CC(C4)C2)C3)CC1	.	.	.	0.0	1	2	.
Cc1cc(C)nc(SSc2nc(C)cc(C)n2)n1	8	10	3482	-1.3	4	9	-17
O=C(O)c1ccc2c(=O)n3c(nc2c1)/C(=C/c1ccc(OC(F)F)cc1OC(F)F)CC3	-6	6	3660	9.5	10	3	-12
COc1ccc(C2=NN(C(=O)c3cccnc3)C(c3ccccc3)C2)cc1 (stereo unspecified)	9	1	2493	2.2	-2	-10	-10
O=C(CCN1C(=O)/C(=C\c2cccs2)SC1=S)Nc1ccc(C(=O)O)cc1	5	6	5418	-2.8	9	9	-11
O=C(NN=Cc1ccc2c(c1)OCO2)c1cc(-c2ccc(F)cc2)nc2ccccc12	-3	5	.	1.8	11	.	.
C[C@@H](NC(=O)Cn1cnc2c(OCc3ccccc3)ncnc21)c1cccc2ccccc12	-9	-16	3614	-3.9	3	.	-23
c1ccc2oc(-c3ccc4nc[nH]c4c3)nc2c1	.	.	2822	-1.3	-1	6	-130
COc1ccc(NC(=O)COC(=O)c2ccc3c(c2)OCCO3)cc1OC	10	10	6560	-0.1	3	.	-20
CCOC(=O)C1=C(C)NC(=O)N(C(C)=O)C1c1ccc(Cl)cc1 (stereo unspecified)	6	7	10461	4.8	-4	1	-25
O=C(NOC(=O)c1ccccc1F)c1ccc(OC(F)F)cc1	-2	10	2595	4.8	7	4	-13
COc1ccc(-c2csc(Nc3ccc(S(=O)(=O)Nc4cc(OC)nc(OC)n4)cc3)n2)cc1	0	-2	7228	4.9	20	4	-17
COc1ccc(NC(=S)N(CCC(C)C)C2CCN(C(C)C)CC2)cc1Cl	3	0	3903	0.0	17	-2	-19
Cc1nn(C)c(C(=O)N/N=C/c2cccc(Oc3ccccc3)c2)c1Br	.	.	5115	.	.	-1	0
Cc1cc(N2CCOCC2)nc2ccc(NC(=O)CCC(=O)N3CCN(c4ccc(F)cc4)CC3)cc12	0	16	3552	3.1	3	-13	-35
Cc1csc(SCC(=O)Nc2cc(S(=O)(=O)N3CCCC3)ccc2Cl)n1	.	.	5010	2.8	3	-7	-16
COc1cc(CCN)ccc1O	-1	-2	5395	2.8	-5	.	-21
CC1CCN(S(=O)(=O)N2CCC(C(=O)O)CC2)CC1	-4	2	1961	2.6	7	3	-8
CCOc1ccc(C(CC(=O)O)NC(=O)c2sc3ccccc3c2Cl)cc1 (stereo unspecified)	4	8	2479	2.6	-9	-4	-25
O=C(C=Cc1ccccc1)c1c[nH]c2ccccc2c1=O	19	12	2951	6.0	9	.	-44
O=C(Nc1ccc(F)cc1F)c1c(C(F)(F)F)ccnc1Oc1cccc(C(F)(F)F)c1	11	2	.	5.2	5	2	-7
C=Cn1cc[n+](CC(=O)c2ccc(OC)cc2)c1	14	1	3823	0.2	4	-1	-27
COc1cccc(C(=O)C2CCCN(C/C=C/c3ccccc3OC)C2)c1 (stereo unspecified)	0	2	3993	8.0	6	-1	-34
COc1ccc(CCC(=O)Nc2ccc(C)c(S(=O)(=O)N(C)C)c2)cc1OC	10	5	2134	3.8	-2	-6	-35
CCN1CCN(C(c2cccs2)C(C)NC(=S)Nc2cc(C)ccc2C)CC1 (stereo unspecified)	1	-6	4495	8.4	4	-1	-25
O=C(COC(=O)c1nn(-c2ccccc2)c(=O)c2ccccc12)NC1CCS(=O)(=O)C1 (stereo unspecified)	14	0	4487	5.3	11	3	-14
COc1ccc(OCC(=O)Nc2cc3oc4ccccc4c3cc2OC)cc1	1	5	2156	-1.7	-23	8	-17

# Shown as labelled records: two of the compounds above.
> COc1ccc(CCC(=O)Nc2ccc(C)c(S(=O)(=O)N(C)C)c2)cc1OC
  Mtb hypoxia inh: 10
  Mtb hypoxia inh growth: 5
  Bead autofluor: 2134
  RN4220 kill: 3.8
  Sa ugtP lethal: -2
  BJeLR lethal: -6
  PrP UTR inh: -35
> CCN1CCN(C(c2cccs2)C(C)NC(=S)Nc2cc(C)ccc2C)CC1 (stereo unspecified)
  Mtb hypoxia inh: 1
  Mtb hypoxia inh growth: -6
  Bead autofluor: 4495
  RN4220 kill: 8.4
  Sa ugtP lethal: 4
  BJeLR lethal: -1
  PrP UTR inh: -25

# Other entries.
canonical_smiles	Mtb hypoxia inh	Mtb hypoxia inh growth	Bead autofluor	RN4220 kill	Sa ugtP lethal	BJeLR lethal	PrP UTR inh
NC(=O)C1=C[C@@H](c2coc3ccccc3c2=O)C[C@@H](OCc2ccc(CO)cc2)O1	.	.	3682	.	.	-6	-42
COc1ccc(C(=O)C2CCCN(CCO)C2)c(C)c1 (stereo unspecified)	2	-2	4614	2.6	6	4	-13
O=C(CCN1C(=O)S/C(=C\c2cccs2)C1=O)Nc1nccs1	3	-2	4170	2.9	9	-12	-36
Cc1ccccc1-n1c(C)cc(C=NNc2ccc([N+](=O)[O-])cn2)c1C	12	8	.	-17	-1	.	.
COc1ccc(CC(=O)NCC(=O)NN=Cc2sccc2C)cc1	7	4	.	5.5	12	.	.
CCNc1nc(SC(C)C(=O)OC)nc(N2CCOCC2)n1 (stereo unspecified)	3	0	3546	4.9	3	-3	-18
CSc1nc(C)c2c(n1)N(c1ccc(O)cc1)CC2	5	3	3636	4.6	-1	0	-12
O=C(COC(=O)Cc1c(F)cccc1Cl)NCCC1=CCCCC1	8	3	2157	4.0	4	1	-24
COc1ccc(CC(C)N2CCN(c3ccccc3OC)CC2)cc1OC (stereo unspecified)	-11	2	10901	-0.5	-5	9	-1
CCOc1ccc(NC(=O)c2ccccc2OCC(=O)c2ccccc2)cc1	9	2	8806	-9.6	-7	10	-44
COc1cc(NC(=O)COC(=O)[C@@H]2CCCN2S(=O)(=O)c2ccc(Cl)cc2)cc(OC)c1OC	.	.	2099	0.7	1	8	-4
COc1cc2c(cc1OC)CN(c1ccc(C(F)(F)F)cn1)CC2	9	7	3751	7.3	-4	0	-31
O=c1[nH]c(O)c(/C=C2\C=Nc3ccc(Br)cc32)[nH]1	-3	0	3707	6.9	8	9	-13
Cc1occc1-c1n[nH]c(=S)n1C	4	0	4798	2.7	1	-2	-25
O=S(=O)(Nc1ccc(Cl)cn1)c1ccccc1	4	6	3586	6.3	-3	-3	4
Cc1ccc(C(=O)NC(Cc2ccc(C(C)(C)C)cc2)C(=O)O)cc1 (stereo unspecified)	-4	-2	2812	11	12	.	-18
COc1ccc(OCCSc2nc(C)c(Cc3ccccc3)c(=O)[nH]2)cc1	-4	5	4263	-0.5	-13	-3	-16
COC(=O)c1ccccc1NC(=O)NCc1ccncc1	.	.	2647	.	.	5	-24
COc1ccc(CN(Cc2cccnc2)S(=O)(=O)c2ccc(-n3cnnn3)c(OC)c2)cc1	8	3	3873	4.4	3	-1	-7
CC#CCOC(=O)c1c(C)nc2sc3c(c2c1N)CCC(O)C3 (stereo unspecified)	17	12	4543	8.1	1	.	-20
CC(=O)Nc1ccc(C(=O)OCc2ccc(Br)cc2)cc1	3	5	2000	-0.6	-4	3	-8
COC(=O)[C@@]1(C)[C@H]2C(=O)N(Cc3ccccc3)C(=O)[C@H]2[C@H]2CN(C)C(=NC3CCCCC3)N21	-1	-5	3416	-1.0	3	.	-14
Cc1sc(NC(=O)CSc2nnc(C)c(=O)[nH]2)c(C#N)c1C	3	5	6303	2.1	6	1	-22
CC(C)n1nc(C(=O)Nc2cccc(S(=O)(=O)N3CCOCC3)c2)c2ccccc2c1=O	-1	1	3108	0.9	-3	.	-20
O=C(OCC(=O)N1CCc2ccccc2C1)c1ccc(O)cc1	-3	-3	5786	3.1	4	.	-23
CCN(CC)S(=O)(=O)c1ccc(C(=O)NCc2ccc3c(c2)cc(C)n3C)cc1	-1	0	1295	9.2	-1	6	-18
COc1cc(C(=O)NCC(=O)OCC(=O)c2ccc[nH]2)cc(OC)c1OC	15	13	9327	6.0	-8	9	-15
O=C(CSc1nnc(-c2cccs2)o1)OCc1ccccc1	0	2	8186	4.8	1	5	-18
OCCN1CCN(c2nc(-c3ccccc3)c3cc(Br)ccc3n2)CC1	9	1	4033	-0.9	14	10	-9
CC(C)c1ccc(CN(C(=O)/C=C/c2ccco2)C2CCS(=O)(=O)C2)cc1 (stereo unspecified)	13	-3	5784	5.1	4	0	-10

# Other structures.
canonical_smiles	Mtb hypoxia inh	Mtb hypoxia inh growth	Bead autofluor	RN4220 kill	Sa ugtP lethal	BJeLR lethal	PrP UTR inh
CCc1ccc(S(=O)(=O)NCCc2csc(-c3cccnc3)n2)s1	4	2	5676	-7.5	-1	0	-19
Cc1n[nH]c(=O)c2c(NC(=O)CSc3nnc(-c4ccco4)n3C)oc(C)c12	1	-6	3761	-0.3	4	.	-16
CC(=O)OCC(=O)[C@@]1(OC(C)=O)[C@@H](C)C[C@H]2[C@@H]3C[C@H](F)C4=CC(=O)C=C[C@]4(C)[C@@]3(F)[C@@H](O)C[C@@]21C	.	.	6173	.	.	4	-3
CCSc1nnc(NC(=O)Cn2cnc3ccccc3c2=O)s1	3	4	5444	-1.5	20	0	-21
CCOC(=O)c1sc2nc(N3CCOCC3)c3c(c2c1N)CCN(C)C3	17	18	.	2.0	1	0	.
COc1ccc(S(=O)(=O)N2CCCCC2)cc1NC(=O)CN1C(=O)NC(C)(C2CC2)C1=O (stereo unspecified)	13	8	4135	3.9	6	.	-28
Cc1cc2c(cc1S(=O)(=O)CCC(=O)Nc1cccc(C(F)(F)F)c1)OCC(=O)N2	11	0	4434	3.2	10	-9	-13
COc1cc(-c2nnc(-c3cc(-c4ccccc4)nc4ccccc34)o2)cc(OC)c1OC	-9	-5	4007	4.1	11	.	-15
COCCN(CCOC)S(=O)(=O)c1ccc(/C(O)=C(\C#N)c2nc3ccccc3[nH]2)cc1	4	13	4684	1.7	5	-3	-6
O=C(CCCOc1ccc(Cl)cc1)N1CCOCC1	-2	-18	3710	-0.9	9	4	-26
O=C(Nc1ccc(S(=O)(=O)Nc2nccs2)cc1)c1ccccc1OC(F)F	6	10	4070	2.9	-4	.	-8
COc1ccc(OCCNc2cc(Cl)ccc2[N+](=O)[O-])cc1	-4	-6	12087	12	20	12	-18
Cc1ccc(NC(=O)C2CCCN2S(=O)(=O)c2cccc3cccnc23)cc1F (stereo unspecified)	.	.	5706	2.6	15	2	-8
Cc1ccc(NCC(=O)N/N=C/c2ccncc2)cc1	.	.	4485	.	.	9	-20
O=C(NCC(c1cccs1)N1CCOCC1)C1CCN(S(=O)(=O)c2ccccc2C(F)(F)F)CC1 (stereo unspecified)	-7	-7	4294	2.3	16	11	-5
COc1ccc([N+](=O)[O-])cc1CSc1nnc(NC(C)=O)s1	-9	-13	3170	-2.2	-1	1	-19
O=C(Cc1ccccc1)Nc1ccc(NC(=S)NC(=O)c2ccccc2)cc1	12	10	5451	-0.5	84*	-8	-19
CN(CC(=O)OCC(=O)NC(=O)c1cccn1C)S(=O)(=O)c1ccc(Cl)cc1	.	.	2862	0.8	8	-6	-10
Cc1ccc(NC(=O)CNC(=O)c2ccc(C)o2)cc1	4	0	3877	-2.9	0	-10	-24
CCNS(=O)(=O)c1ccc(NC(=O)Cc2ccc(F)cc2)cc1	8	8	10272	5.5	0	-4	-19
Cc1nnc(N(C)C(=O)c2cnccn2)s1	4	2	3164	-2.4	0	-6	0
CNC(=O)COc1ccc(Nc2nnc(-c3ccc(C)c(S(N)(=O)=O)c3)c3ccccc23)cc1	13	9	3935	4.0	9	-12	-9
COC(=O)c1nn(-c2c(C)n(C)n(-c3ccccc3)c2=O)cc1O	-4	-1	13005	-2.8	3	13	-3
Cc1ccc(C(=O)NC(=S)NCC(=O)c2ccccc2)cc1	.	.	4393	2.0	-6	1	-33
COc1cc2c(cc1O)C1Cc3cc(O)c(OC)cc3C(C2)N1C (stereo unspecified)	4	5	.	4.7	0	.	.
CCN(CC)c1ccc([C@H]2[C@@H]3CCCC[C@]3(O)CCN2CC(=O)NCc2ccco2)cc1	17	-4	4721	3.8	-1	3	-1
Cc1ccc(-c2nnc(C)c(N3CCOCC3)n2)cc1	.	.	2625	0.6	-3	0	-30
